# Lassa entry inh: qHTS for Inhibitors of binding or entry into cells for Lassa Virus. hit rate 1.2% among 300,000. Lassa virus pseudotype entry inhibition, cell reporter; control for the full effect not named in the record. AID 540256, 2011. Potency, µM (top dose mostly 37.9 µM), without a hit: at the highest dose activity change, negative = inhibition, hits mostly inhibitors; active means well fitted inhibition curve with a large enough effect; inconclusive means small, poorly fitted or top-dose-only effect, or effect the other way; inactive means flat fitted curve, though single readings scatter; tested in HEK293 cells; note: % is set by controls: 0 for no effect and ±100 for the full control effect; nearly all actives have a fitted effect of over 50% in size; luciferase read-out
# StopGo reporter: High Throughput Screening for Foot and Mouth Disease Virus Antivirals | human cells with a luciferase reporter of 2A StopGo recoding; control for the full effect not named in the record | Potency, µM (highest dose often 57.9 µM), inactives show at the highest dose signal change, negative = less light | hit rate 1.2% among 410,000; active = well fitted falling curve with a large enough effect; inconclusive = small, poorly fitted or top-dose-only effect; inactive = no such curve, though single readings can be large or run the other way; tested in HEK293T cells; note: % is set by controls: 0 for no effect and ±100 for the full control effect; nearly all actives have a fitted effect of over 45% in size; luciferase light after 4 h
# NS1 function inh: qHTS Assay for Inhibitors of Influenza NS1 Protein Function | Potency, µM (doses to about 46.1 µM), for inactives: at the highest dose activity, positive = more growth | AID 2326, 2010 | hit rate 0.4% among 270,000 | S. cerevisiae slowed by influenza A NS1, growth recovery by OD600; note: actives are rising curves; nearly all actives have a fitted effect of over 50% in size
#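 In this qHTS, NS1 from influenza A is expressed in budding yeast, where it slows growth. Cells are switched from glucose to 2% galactose medium (pH 6.0, -URA), treated with compound, and growth recovery is read at OD600.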
# RE007 growth inh: qHTS Assay for Inhibitors of the HIV-1 protein Vpr; S. pombe RE007 Vpr strain, BacTiter-Glo ATP luminescence, 24 h; control for the full effect not named in the record; Potency, µM (series often up to 92.2 µM), without a hit: at the highest dose activity change, negative = less growth; hit rate 0.21% among 360,000; AID 651644, 2012; active = well fitted falling curve with a large enough effect; inconclusive = small, poorly fitted or top-dose-only effect; inactive = no such curve, though single readings can be large or run the other way;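 note: % is set by controls: 0 for no effect and ±100 for the full control effect; nearly all actives have a fitted effect of over 50% in size; the assay follows cell death caused by Vpr and the record does not say whether a fall means rescue or toxicity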
#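 Fission yeast strain RE007, carrying one chromosomally integrated HIV-1 vpr copy, was seeded at OD 0.01 in PMG+AL medium with 23 nL pinned compound. After 24 h at 30 °C and 99% humidity, viability was read by BacTiter-Glo luminescence.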
# MARV entry inh: qHTS for inhibitors of binding or entry into cells for Marburg Virus | Marburg virus pseudotyped entry inhibition, cell reporter; control for the full effect not named in the record; about a third of the inactives were read at about 46 µM | Potency, µM (series often up to 37.8 µM), for the others: top-dose activity change, negative = inhibition, actives largely listed as inhibitors | hit rate 1.8% among 300,000; active = well fitted inhibition curve with a large enough effect; inconclusive = small, poorly fitted or top-dose-only effect, or effect the other way; inactive = flat fitted curve, though single readings scatter; tested in HEK293 cells; about a fifth of its hits are not listed in these tables; note: % is set by controls: 0 for no effect and ±100 for the full control effect; luciferase read-out
# Cruzain inh noDet: qHTS Assay for Promiscuous and Specific Inhibitors of Cruzain (without detergent) | Cruzipain (Trypanosoma cruzi), P25779 | purified cruzain, Z-FR-AMC fluorescence, no detergent | Potency, µM, for the others: max response, negative = inhibition, hits mostly inhibitors | hit rate 2.3% among 200,000 | AID 1476, 2009; active = well fitted curve in the direction sought with a large enough effect; inconclusive = small, poorly fitted or top-dose-only effect, or another doubt; inactive = no such curve, though single readings can be large; an effect the other way counts as inactive or inconclusive;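 note: plate controls were enzyme without inhibitor for no effect and buffer without enzyme for full effect; nearly all actives have a fitted effect of over 40% in size; top concentration of the series not given in the record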
# Target sequence (P25779 123-467 limits assumed): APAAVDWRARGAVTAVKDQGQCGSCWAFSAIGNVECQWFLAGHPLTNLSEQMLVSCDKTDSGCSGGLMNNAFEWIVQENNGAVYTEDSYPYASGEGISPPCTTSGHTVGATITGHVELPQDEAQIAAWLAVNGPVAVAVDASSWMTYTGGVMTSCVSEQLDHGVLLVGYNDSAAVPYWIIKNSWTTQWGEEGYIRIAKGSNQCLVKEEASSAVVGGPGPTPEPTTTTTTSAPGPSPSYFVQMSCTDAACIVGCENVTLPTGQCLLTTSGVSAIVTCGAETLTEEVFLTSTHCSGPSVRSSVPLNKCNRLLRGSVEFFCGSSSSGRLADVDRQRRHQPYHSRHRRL
#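 Purified cruzain at 1.5 nM, pre-incubated 15 min with compound at room temperature in 100 mM sodium acetate pH 5.5, 5 mM DTT, 0.00005% Triton X-100. Reaction started with 2 uM Z-FR-AMC; AMC fluorescence increase over 60 s gives rate.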
# SARS PLpro yeast: qHTS of Yeast-based Assay for SARS-CoV PLP | S. cerevisiae expressing SARS-CoV PLpro, growth rescue; control for the full effect not named in the record | Potency, µM (top dose mostly 32.9 µM), for inactives: top-dose activity, positive = growth rescue | hit rate 0.19% among 330,000; note: 0% is about no effect; nearly all actives have a fitted effect of over 55% in size; growth read by luminescence after 48 h
# Cruzain Triton: qHTS Assay for Promiscuous and Specific Inhibitors of Cruzain (with detergent); purified cruzain, Z-FR-AMC fluorescence, 0.01% Triton; Potency, µM, without a hit: max response, negative = inhibition, hits mostly inhibitors; hit rate 0.43% among 200,000; active = well fitted curve in the direction sought with a large enough effect; inconclusive = small, poorly fitted or top-dose-only effect, or another doubt; inactive = no such curve, though single readings can be large; an effect the other way counts as inactive or inconclusive;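 note: plate controls were neutral wells for no effect and buffer without enzyme for full effect; nearly all actives have a fitted effect of over 40% in size; top concentration of the series not given in the record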
#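 Enzyme 1.5 nM, Z-FR-AMC 2 uM, NaOAc 100 mM pH 5.5, DTT 5 mM, Triton X-100 0.01%; 15 min RT compound preincubation; kinetic ex360/em450, 60 s delta.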
# An asterisk follows results filed as active; ? = inconclusive; . = no result given; [ ] = dose if it differs, or a comment. Unless noted, calls come from the whole dose curve; as a rule, active means well fitted rising curve with a large enough effect; inconclusive means small, poorly fitted or top-dose-only effect; inactive means no such curve, though single readings can be large or run the other way. Potency is the fitted concentration of half-maximal effect.
SMILES,Lassa entry inh,StopGo reporter,NS1 function inh,RE007 growth inh,MARV entry inh,Cruzain inh noDet,SARS PLpro yeast,Cruzain Triton
COc1cc(/C=C/C(=O)OCC(=O)NC(C)c2ccccc2)cc(OC)c1OC (stereo not drawn),-16%,-10%,.,-14%,?,.,18%,.
COc1cccc(C2C(C(=O)c3cc4ccccc4o3)=C(O)C(=O)N2CCN2CCOCC2)c1 (stereo not drawn),1%,15%,-7%,-8%,9%[46.1 µM],.,1%,.
O=c1cc(N2CCN(Cc3ccccc3)CC2)[nH]c(=O)n1-c1ccc(Br)cc1,.,-11%,11%,5%,.,9%,8%,6.3%
O=C(O)CCCn1cc(NC(=O)c2sc3ccccc3c2Cl)cn1,.,-15%,0%,9%,.,.,-1%,.
CCOc1ccccc1CN1C(=O)c2ccccc2C1C(=O)NCC1CCCO1 (stereo not drawn),-7%,21%,-3%,-3%,-6%,-5%,1%,-2.1%
COc1cccc(CNC(=O)Cn2ncc3c4ccccc4n(C)c3c2=O)c1,6%[46.1 µM],-11%,.,.,13%[46.1 µM],18%,.,-3.8%
CC(=O)Oc1ccc(-c2csnn2)cc1,7%,-13%,4%,-10%,-3%,-6%,1%,2.3%
O=C(Nc1ccccc1)C1=C[C@@H](C2CCCCC2)C[C@@H](OCCCCO)O1,.,-3%,0%,-4%,.,.,-1%,.
CCN(CC)CCN(C(=O)c1ccc2c(c1)OCCO2)c1nc2ccc(C)cc2s1,?,-12%,-8%,-11%,?,.,16%,.
COc1cc(-c2[nH]ncc2CN2CCc3sccc3C2)cc(OC)c1OC,.,-29%,3%,2%,.,.,1%,.
COCC1CCN(Cc2nc(-c3ccc(OC)cc3)no2)CC1,9%[46.1 µM],1%,0%,-24%,?,.,0%,.
COc1ccc(N=Cc2c(O)n(CC3CCCO3)c(=O)[nH]c2=O)cc1 (stereo not drawn),?,7%,-8%,3%,?,-25%,4%,-9.2%
CCOc1ccc(S(=O)(=O)Nc2cccc(-c3ccc(N4CCCCCC4)nn3)c2)cc1,.,25%,-4%,2%,.,.,-5%,.
CCNC(=S)N/N=C/c1ccc(C(=O)O)cc1,?,-5%,.,-13%,-7%,.,0%,.
Cc1ncoc1C(=O)Nc1nccs1,11%,23%,9%,-2%,-1%,-8%,-1%,3.3%
O=C(N/N=C/c1ccc([N+](=O)[O-])o1)c1ccccc1-n1cccc1,?,?,0%,-9%,?,.,-3%,.
COc1cccc(C(=O)NCc2ccc3c(c2)CCN3C(=O)c2ccncc2)c1,?,2%,.,.,.,4%,.,2.2%
CC(=O)c1ccc(N2CCN(C(=O)CCCCn3c(=O)[nH]c4ccsc4c3=O)CC2)cc1,1%[46.1 µM],?,.,.,3%[46.1 µM],-6%,.,-1.2%
C1=C(CCNc2ncnc3c2cnn3-c2ccccc2)CCCC1,-17%,3%,-6%,-1%,?,5%,-4%,-4.7%
CCc1ccc2ncc(C(=O)c3ccc(C)c(C)c3)c(N3CCC(C(N)=O)CC3)c2c1,.,0%,.,.,?,?,.,-1.4%
Cc1nnc(SCC(=O)Nc2ccccc2F)n(N)c1=O,5%[46.1 µM],13%,7%,-6%,24%[46.1 µM],.,3%,.
CCc1nnc(NC(=O)CCC(=O)Nc2ccc(C)cc2)s1,.,-6%,-2%,-4%,.,.,-2%,.
CC(=O)Nc1c(C)nn(-c2ccc(C)c(C)c2)c1C,26%,8%,3%,-6%,?,-6%,4%,0.9%
COc1ccc(CNC(=O)C2CCCN(S(=O)(=O)c3c(C)n[nH]c3C)C2)cc1 (stereo not drawn),?,.,-4%,-8%,3%,3%,0%,-2.5%
COc1cccc(C(=O)N/N=C2/SCC(=O)N2CCc2ccc(OC)c(OC)c2)c1,7%,.,-10%,-16%,-12%,3%,-1%,5.0%
Cc1cccc(OCCOC(=O)C2CCN(S(=O)(=O)c3ccc(C)c(C)c3)CC2)c1,11%,-11%,12%,14%,24%,.,-7%,.
CCOC(=O)c1[nH]c(C)c(C(=O)NCCCN2CCOCC2)c1C,-31%[14.3 µM],-10%,-15%,-7%,-2%,4%,?,4.8%
CCOC(=O)c1nnn(CC(=O)Nc2cccc(Cl)c2C)c1C(=O)OCC,0%,-1%,-1%,7%,?,-3%,6%,1.2%
Cc1ccc(S(=O)(=O)NCCCN2CCOCC2)cc1C,-28%,43%[activator],0%,2%,-18%,1%,5%,0.2%
CCn1c(CNC(=O)c2ccc(OC)cc2)nnc1SCC(=O)Nc1cccc(C)c1C,14%[46.1 µM],3%,.,.,4%[46.1 µM],7%,.,5.5%
CCOc1cc(C)c(S(=O)(=O)Nc2ccc3cn[nH]c3c2)cc1C,-20%,.,27%,8%,?,17%,-6%,-1.8%
CSc1ccccc1NC(=O)CCn1c(=O)sc2ccccc21,-28%,5%,-64%,8%,19%,2%,11%,1.5%
O=C(Nc1ccnn1C1CCN(Cc2ccc3nonc3c2)CC1)c1cccc(F)c1,.,12%,-3%,6%,.,.,-4%,.
O=C(NCCS(=O)(=O)N1CCN(c2ccc(F)cc2)CC1)c1ccc2c(c1)OCO2,-12%,-21%,.,4%,10%,.,2%,.
COc1ccc(Cl)cc1NC(=O)c1[nH]nc(OC)c1[N+](=O)[O-],.,-10%,-2%,-8%,.,.,-3%,.
Cc1cccc(-n2c(C)cc(/C=N/NC(N)=S)c2C)c1,?,-11%,-7%,9%,?,-26%,?,-24%
CN(c1ccc(C(=O)NC2CC3CCC2C3)cc1)S(C)(=O)=O (stereo not drawn),-12%,47%[activator],-9%,7%,2%,-3%,-3%,4.5%
O=C(NCc1cccnc1)c1cccc(S(=O)(=O)NCc2ccccc2)c1,-12%,-1%,.,6%,28%,.,6%,.
COc1ccc(S(=O)(=O)NC(CC(=O)NCC2CCCO2)c2ccco2)cc1 (stereo not drawn),-1%,-7%,-3%,3%,?,12%,3%,3.0%
O=S(=O)(c1ccccc1)c1nc(-c2ccco2)oc1NCCCN1CCOCC1,-17%,13%,7%,13%,-6%,-8%,17%,14%
Cc1ccc(-c2cc(C(F)F)n3ncc(C(=O)N4CCN(c5ccccn5)CC4)c3n2)cc1,.,0%,-84%,-14%,-2%,24%,-29%,-5.9%
CCS(=O)(=O)Nc1ccc(C2=NN(C(C)=O)C(c3cccs3)C2)cc1 (stereo not drawn),-19%,7%,.,6%,-5%[46.1 µM],.,-3%,.
COc1ccc(Br)cc1CNC(=O)CSc1n[nH]c(-c2ccccc2)n1,-22%[46.1 µM],0%,.,.,.,9%,.,1.2%
CCOC(=O)c1cc(OC(=O)c2cccc(Cl)c2)n(-c2ccccc2)n1,?,-10%,.,.,.,24%,.,-7.7%
CCOC(=O)C1CCCc2c1[nH]c1c(C(N)=O)cccc21 (stereo not drawn),0%,-15%,-4%,-10%,-7%,-3%,-21%,0.2%
CCOc1ccc(Cn2nnc(C(=O)Nc3ccc(OC)cc3OC)c2N)cc1,.,3%,?,3%,.,-2%,5%,-2.8%
O=C(Cn1cnc2c(nnn2-c2ccccc2)c1=O)N1CCOCC1,.,-11%,-82%,21%,.,5%,-1%,-0.6%
CCC(=O)N1CCC2(CC1)Oc1ccc(Cl)cc1C(=O)C21CC(c2cccnc2)=NO1 (stereo not drawn),.,-10%,4%,2%,.,.,3%,.

# Of the compounds above, these contain an NH in an aromatic ring:
SMILES,Lassa entry inh,StopGo reporter,NS1 function inh,RE007 growth inh,MARV entry inh,Cruzain inh noDet,SARS PLpro yeast,Cruzain Triton
O=c1cc(N2CCN(Cc3ccccc3)CC2)[nH]c(=O)n1-c1ccc(Br)cc1,.,-11%,11%,5%,.,9%,8%,6.3%
COc1cc(-c2[nH]ncc2CN2CCc3sccc3C2)cc(OC)c1OC,.,-29%,3%,2%,.,.,1%,.
COc1ccc(N=Cc2c(O)n(CC3CCCO3)c(=O)[nH]c2=O)cc1 (stereo not drawn),?,7%,-8%,3%,?,-25%,4%,-9.2%
CC(=O)c1ccc(N2CCN(C(=O)CCCCn3c(=O)[nH]c4ccsc4c3=O)CC2)cc1,1%[46.1 µM],?,.,.,3%[46.1 µM],-6%,.,-1.2%
COc1ccc(CNC(=O)C2CCCN(S(=O)(=O)c3c(C)n[nH]c3C)C2)cc1 (stereo not drawn),?,.,-4%,-8%,3%,3%,0%,-2.5%
CCOC(=O)c1[nH]c(C)c(C(=O)NCCCN2CCOCC2)c1C,-31%[14.3 µM],-10%,-15%,-7%,-2%,4%,?,4.8%
CCOc1cc(C)c(S(=O)(=O)Nc2ccc3cn[nH]c3c2)cc1C,-20%,.,27%,8%,?,17%,-6%,-1.8%
COc1ccc(Cl)cc1NC(=O)c1[nH]nc(OC)c1[N+](=O)[O-],.,-10%,-2%,-8%,.,.,-3%,.
COc1ccc(Br)cc1CNC(=O)CSc1n[nH]c(-c2ccccc2)n1,-22%[46.1 µM],0%,.,.,.,9%,.,1.2%
CCOC(=O)C1CCCc2c1[nH]c1c(C(N)=O)cccc21 (stereo not drawn),0%,-15%,-4%,-10%,-7%,-3%,-21%,0.2%

# Rows are unselected; overall some 4.6% were active at least once.
